# HCMV NEC inh: disrupts HCMV UL50-UL53 complex binding; HTRF UL50-UL53 interaction, normalized percent inhibition; inhibition, % (no concentration beside the values); hit rate 0.15% among 190,000; AID 1918969;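 active = both replicates at 50% or more, plus weaker picks with an unusually low signal ratio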;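 note: stock transfer was 100 nL into about 20 µL; 0% = negative control wells and 100% = wells with untagged competitor protein; inactives centre near -12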
# GIV Gai3 FP: blocks GIV peptide binding to rat Galpha-i3. Galpha-i3/FITC-GIV peptide fluorescence polarization, 90 min; hits give low values; scaled: aluminum fluoride 0%, vehicle 100%. hit rate 0.42% among 210,000. percent of control (FP), % (concentration not given with the values). P08753;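 active = replicate mean at 85% of control or lower, very high polarization wells dropped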;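 note: wells of about 15 µL received 100 nL stock; the first replicate is given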
# Target sequence (P08753 whole entry, looked up): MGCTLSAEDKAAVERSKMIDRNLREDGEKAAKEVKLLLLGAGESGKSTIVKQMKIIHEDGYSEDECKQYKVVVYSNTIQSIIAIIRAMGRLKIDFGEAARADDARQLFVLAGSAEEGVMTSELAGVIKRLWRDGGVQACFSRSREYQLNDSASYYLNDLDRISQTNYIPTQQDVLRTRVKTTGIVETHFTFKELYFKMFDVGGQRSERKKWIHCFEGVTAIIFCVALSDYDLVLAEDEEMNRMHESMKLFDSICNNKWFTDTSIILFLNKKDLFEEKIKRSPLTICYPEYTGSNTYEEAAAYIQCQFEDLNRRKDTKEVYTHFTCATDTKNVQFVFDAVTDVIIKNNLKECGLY
# Sa growth 42C: S. aureus growth inhibition; relative growth, % (concentration not given with the values); hit rate 0.53% among 170,000; S. aureus RN4220 growth, OD600, 20 h, 42 °C; hits give low values;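 active = growth at 42 °C up to 50% and 20 or more points under that at 30 °C, or under 10% at both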;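 note: 300 nL library stock went into each well; scaled to the means of positive and negative controls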
# Sa growth 42C second temp: second read-out of Sa growth 42C, no call of its own (marks repeat the call); relative growth, %; measured here: growth at 30 °C;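 optical density after 20 h as mean of two plates; 100% = untreated growth and lower means inhibition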
# Active calls of the source: *; / = no result given; & = joins results of further samples.
smiles,HCMV NEC inh,GIV Gai3 FP,Sa growth 42C,Sa growth 42C second temp
CCOC(=O)c1ccc(NC(=O)CCn2c(=O)oc3ccccc32)cc1,12,109,84,86
COc1ccc(C2CC(=O)C3=C(C2)Nc2ccccc2N(C(=O)C2CC2)C3c2cccnc2)cc1OC (stereo unspecified),-16,105,95,88
CC(C)SC1OC(CO)C(O)C(O)C1O (stereo unspecified),-14&-10,98,85,87
CC1CCN(C(=O)CCS(=O)(=O)c2ccc3c(c2)SCC(=O)N3)CC1,/,106,97,86
O=S(=O)(NC1CCCCC1n1cc(-c2ccccc2)nn1)c1ccc(Cl)cc1 (stereo unspecified),/,96,113,80
Cc1ccc(C)c(OCCn2c(C3CC(=O)N(Cc4ccc(F)cc4)C3)nc3ccccc32)c1 (stereo unspecified),-32,100,105,83
CC(=O)NC1=NC(=O)/C(=C\c2cccs2)N1C,-76,80*,104,83
COCc1cc(C)nc2sc3c(c12)NC(c1ccccc1C(=O)O)N(c1ccc(OC)cc1)C3=O (stereo unspecified),-76,101,116,88
Cn1nc(-c2ccc(C(=O)NCCN3CCOCC3)cc2)c2ccccc2c1=O,-4,97,92,93
COc1ccccc1C(=O)N1CCC(c2nc(-c3ccc(S(=O)(=O)N4CCCC4)cc3)no2)CC1,1,97,/,/
COc1cc(C2C(C(=O)Nc3ccccc3C)=C(C)Nc3ncnn32)ccc1OCC(N)=O (stereo unspecified),/,99,98,93
O=C1CCCC2=C1C(c1cc3c(cc1[N+](=O)[O-])OCO3)Nc1ccc(C(=O)c3ccccc3)cc1N2 (stereo unspecified),-20,112,/,/
Cc1nc(-c2ccccc2)c(CC(=O)O)s1,/,99,86,79
N#Cc1cccc(NC(=O)CNC(=O)Cc2ccccc2)c1,-33,/,95,84
O=C(NC1CCCCC1)c1ccc(Cn2c(SCc3ccccc3F)nc3cccnc32)cc1,/,99,75,49
Cc1ccccc1Cn1c(=O)[nH]c2ccccc21,-15,105,116,95
CC(C)OCCCn1c(=O)c2ccccc2n2c(-c3ccccc3F)nnc12,-4,100,120,86
Cc1ccc(CN2c3ccccc3-c3nc(SCC(=O)Nc4ccc(F)c(F)c4)ncc3S2(=O)=O)cc1,-7,101,/,/
O=C(c1cc(-c2ccco2)on1)N1CCCC1,0,102,102,94
O=C(OCc1nccn1Cc1ccc(Cl)cc1)c1ccccc1,-1,100,109,88
CCOc1ccc(CN(CCc2ccc3c(c2)OCO3)Cc2cc(OC)c(OC)cc2OC)cc1,-33,102,87,64
CCCN(CCC)CCNS(=O)(=O)c1ccc2c(c1)N(C(C)=O)CCCS2,1,100,/,/
Cc1ccc(S(=O)(=O)NCc2csc(C)n2)c(C)c1,-9,109,107,104
CCOC(=O)CSCN1CCCCC1,-75,99,100,92
COc1ccccc1CNC(=O)C(NS(=O)(=O)c1ccc2c(c1)CCN2C(C)=O)C(C)C (stereo unspecified),-12,105,107,95
CCOC(=O)c1sc(Nc2ccccc2)c(-c2nc3ccccc3[nH]2)c1N,-4,98,101,91
CCN(CC)c1ccc(/C=C2\C(=O)NC(=S)N(c3cc(OC)ccc3OC)C2=O)c(O)c1,-7,124,/,/
Nc1nc(CN2CCCCC2)nc2ccccc12,-25,/,79,89
COc1ccc(C(=O)NC2CCCCC2NC(=O)c2ccc(OC)cc2)cc1 (stereo unspecified),2,/,92,89
Cc1cc(NC(=O)C2CCCN(S(=O)(=O)c3cn(C(C)C)cn3)C2)c2ccccc2n1 (stereo unspecified),-18,106,/,/

# Results in GIV Gai3 FP, HCMV NEC inh and Sa growth 42C, for some of the entries so far:
Molecule	GIV Gai3 FP	HCMV NEC inh	Sa growth 42C
COCc1cc(C)nc2sc3c(c12)NC(c1ccccc1C(=O)O)N(c1ccc(OC)cc1)C3=O (stereo unspecified)	101	-76	116
Cn1nc(-c2ccc(C(=O)NCCN3CCOCC3)cc2)c2ccccc2c1=O	97	-4	92
COc1ccccc1C(=O)N1CCC(c2nc(-c3ccc(S(=O)(=O)N4CCCC4)cc3)no2)CC1	97	1	/
COc1cc(C2C(C(=O)Nc3ccccc3C)=C(C)Nc3ncnn32)ccc1OCC(N)=O (stereo unspecified)	99	/	98
O=C1CCCC2=C1C(c1cc3c(cc1[N+](=O)[O-])OCO3)Nc1ccc(C(=O)c3ccccc3)cc1N2 (stereo unspecified)	112	-20	/

# Record cards, as listed above. Screens in order: HCMV NEC inh	GIV Gai3 FP	Sa growth 42C	Sa growth 42C second temp
# CCOC(=O)CSCN1CCCCC1 reads -75	99	100	92
# O=S(=O)(NC1CCCCC1n1cc(-c2ccccc2)nn1)c1ccc(Cl)cc1 (stereo unspecified) reads /	96	113	80
# Cc1ccc(S(=O)(=O)NCc2csc(C)n2)c(C)c1 reads -9	109	107	104
# CCCN(CCC)CCNS(=O)(=O)c1ccc2c(c1)N(C(C)=O)CCCS2 reads 1	100	/	/
# CC(C)SC1OC(CO)C(O)C(O)C1O (stereo unspecified) reads -14&-10	98	85	87

# Later entries.
smiles,HCMV NEC inh,GIV Gai3 FP,Sa growth 42C,Sa growth 42C second temp
CCCOc1ccc(C(F)(F)F)cc1NC(=O)CN1CSCC1=O,-23,/,85,96
O=C(O)c1cc(=O)[nH]c2c(Cl)cccc12,-7,/,75,57
O=S(=O)(c1ccc(Br)cc1)N1CCCC(c2nc(-c3ccc4c(c3)OCO4)no2)C1 (stereo unspecified),-28,104,/,/
Cc1nc2c(c(C)nn2C(C)(C)C)c(C)c1CCC(=O)N1CCC(N2CCCCC2)CC1,-31,99,/,/
Cc1cccc(OCC(=O)Nc2ccc3nc(Nc4cccc(C(F)(F)F)c4)cc(C)c3c2)c1,/,101,94,82
COc1ccc(Cn2c(=O)[nH]c3cc(C(=O)N4CCN(c5cc(Cl)ccc5C)CC4)ccc3c2=O)cc1,-12,105,92,93
CCOC(=O)C1=NNC2C(=O)N(Cc3ccccc3)C(=O)C12 (stereo unspecified),-6,110,96,97
CC1(C)CC(=O)c2cc3c(N)c(C(=O)c4ccc(Cl)cc4)sc3nc2C1,-10,/,100,93
CCC(C)NC(=O)CSc1nc2c(sc3ccccc32)c(=O)n1Cc1ccccc1Cl (stereo unspecified),/,103,90,69
CCCCNC(=O)c1ccc2c(c1)NC(=O)C(CS(=O)(=O)Cc1ccc(F)cc1Cl)N2 (stereo unspecified),/,195,98,98
N#Cc1ncoc1-c1ccc(C(F)(F)F)cc1,-3,100,113,102
COC(=O)c1c(NC(=O)c2cc(=O)c3cc(Cl)ccc3o2)sc2c1CCC2,-14,114,/,/
C=CCNC(=O)c1sc(COc2ccc(Cl)c(C)c2)nc1C,-17,103,/,/
COc1ccc(NC(=O)C2CCC(CNS(=O)(=O)c3cccs3)CC2)cc1OC (stereo unspecified),8,108,99,101
O=C(NCc1ccccc1F)C1CCCN(C(=O)N2CCOc3ccccc32)C1 (stereo unspecified),-12,108,129,90
CCC(Cc1ccccc1)NC(=O)Cn1cccc1C(=O)c1ccccc1 (stereo unspecified),-12,91,/,/
COC(=O)CC12CC3CC(C1)CC(C(=O)OC)(C3)C2,9,/,86,98
CN(CC(=O)Nc1ccc(S(=O)(=O)N(C)C)cc1)Cc1ccc(C(F)(F)F)cc1,-21,/,116,90
Cc1ccc(C)c(C(=O)CSc2nc3cc(C(=O)NC4CCCC4)ccc3c(=O)n2CC2CCCO2)c1 (stereo unspecified),-2,104&101,89,79
NS(=O)(=O)c1ccc(CCNC(=O)c2ccco2)cc1,7,/,121,87
COc1ccc2[nH]c(C(=O)Nc3ccccc3Cl)cc2c1,6,106,110,84
CCOC(=O)c1noc2nc(C)n(Cc3ccc([N+](=O)[O-])cc3)c(=O)c12,/,98,93,92
O=C(CSc1nccn2nc(-c3ccccc3)cc12)NC1CCCCC1,-21,100,/,/
C[N+](C)(C)CCOc1ccc2nc(N)sc2c1,/,104,100,91
O=C(O)c1ccccc1C(=O)c1ccc2c(c1)OCCO2,-6,/,93,88
O=[n+]1c2c(n([O-])c3c1CCCC3)CCCC2,-33,111,94,92
Cc1cc(C(=O)NCCCN2CCCC2=O)c2cc(Br)ccc2n1,-44,104,/,/
CC(=O)N1c2ccccc2C(C)(c2ccc(C)cc2)CC1(C)C (stereo unspecified),-19,103,102,99
COc1ccc(-c2cc(NC(=O)N3CCc4ccccc4C3)c3ccccc3n2)cc1,/,98,111,106
Cc1nc2c3cc(F)ccc3n(CCN3CCOCC3)c2s1,28,102,86,80

# Following part.
smiles,HCMV NEC inh,GIV Gai3 FP,Sa growth 42C,Sa growth 42C second temp
COc1ccccc1NC(=O)C1C(=O)CNC23CCCCC2C1c1ccccc1O3 (stereo unspecified),4,102,98,94
Cc1cccc(NC(=O)CSc2nccn2Cc2ccc(F)cc2)c1C,/,103,122,90
Cc1c(C(=O)NCc2ccccc2)oc2c1C(=O)CCC2,/,107,92,86
COC(=O)c1ccccc1NC(=O)COc1ccc(OC)cc1,/,100,119,84
C#CCn1c(C2CC(=O)N(c3ccc(OCC)cc3)C2)nc2ccccc21 (stereo unspecified),-10,103,108,91
CC(=O)N1CCC(c2ccc(Cl)cc2)=N1,-46,103,104,94
O=C(O)CSCC(=O)Nc1cccc(O)c1,-15,98,92,91
CC(C)(C)c1[nH]nc2c1C(c1ccc(OC(=O)c3ccccc3Cl)cc1)C(C#N)=C(N)O2 (stereo unspecified),/,106,106,101
O=C1NC(=S)NC(=O)C1=CN1CCc2ccccc2C1,-6,157,96,82
COCCN(Cc1nnc(-c2cccs2)o1)C(=O)c1cc(Cl)c(OC(C)C)c(OC)c1,2,/,120,98
N#Cc1c(N2CCCC2)n[nH]c1N,0,/,88,95
Clc1ccc(N=Cc2c(-c3ccccc3)nc3n2CCS3)cc1,-51,103,90,89
COC(=O)CN1C(=O)CSc2ccc(S(=O)(=O)Nc3cccc(OC)c3)cc21,-3,104,/,/
O=c1c(Cl)c(Cl)cnn1CN1CCCC1c1nc2ccccc2s1 (stereo unspecified),-34,/,108,88
O=S(=O)(c1ccccc1)c1cnc2ccccc2c1N1CCCC1,-55,104,86,79
NC(=O)CSc1nnc(-c2ccccc2)n1-c1ccccc1,2,99,98,82
O=C(Nc1ccc2cn[nH]c2c1)c1cccc(Oc2ccccc2)c1,2,/,104,80
COc1cccc(CC(NC(C)=O)C(=O)NC2CCN(c3nc(C)cc(C)n3)CC2)c1OC (stereo unspecified),3,102,82,95
COc1ccc(CCN2C(=O)CN(C3CCCCCC3)C(=O)C2c2ccc(C)cc2)cc1OC (stereo unspecified),/,105,101,86
CSCCC(C(=O)O)n1c(O)c(C2=c3cc(Br)ccc3=NC2=O)sc1=S (stereo unspecified),-7,111,/,/
Cn1cc(-c2ccccc2)c2c1c(=O)n(C)c1n[nH]c(=O)n21,-14,104,/,/
CC1CCCN(C(=O)COC(=O)/C=C/c2ccccc2Cl)C1 (stereo unspecified),-25,/,100,100
Cc1ccc(CNC(=O)CN(c2ccc(Cl)cc2Cl)S(=O)(=O)c2ccccc2)cc1,-7,102,86,81
O=C(CCc1nc(-c2ccc(Cl)cc2)no1)Nc1ccncc1,-11,96,/,/
Cc1ccc(Cc2nc3ccccc3nc2SCC(=O)N2CCN(c3ccc(F)cc3)CC2)cc1,/,105,114,100
Cc1ccc(Nc2nnns2)cc1C,/,95,90,75
CNC(=O)c1ccc(CSc2nc3cccnc3n2Cc2cccc(F)c2)cc1,/,110,102,87
CCn1c(-c2ccco2)nn(CN2CCN(S(=O)(=O)/C=C/c3ccccc3)CC2)c1=S,-37,/,80,98
CCOC(=O)c1sc(N)c(C(=O)OCC)c1CSc1nncs1,-18,/,99,76
Fc1ccc(-c2cc3ccccc3[nH]2)cc1F,1,103,102,70

# Next compounds.
smiles,HCMV NEC inh,GIV Gai3 FP,Sa growth 42C,Sa growth 42C second temp
COc1ccc(-c2nc3ccccc3c(=O)n2CCN2CCOCC2)cc1,-7,100,103,100
C=CCn1c(SCC(=O)Nc2ccc(C)cc2)nnc1C1CC1,/,99,109,89
CCc1ccc(CNC(=O)c2ccc(CSc3nc4ccncc4n3Cc3ccccc3)cc2)cc1,-2,96,104,107
c1nc(N2CCCC2)c2c3c(sc2n1)CCCC3,12,/,88,93
CNC(=O)NC(=O)C(C)Sc1nnc(Nc2ccc(OC)cc2)s1 (stereo unspecified),-32,/,82,93
COc1cccc(C(=O)c2sc3nc(-c4ccccc4)cc(C(F)(F)F)c3c2N)c1,-11,128,100,93
C=CCN=C1N=C2SC=CN2C(=O)/C1=C\c1ccccc1,-15,/,92,91
O=C(Cn1c(=O)[nH]c2c(-c3ccccc3)c[nH]c2c1=O)NCc1cccnc1,8,102,/,/
O=C(Nc1ccccc1C(=O)N1CCCC1)C(c1ccccc1)c1ccccc1,-9,/,103,92
O=C1Nc2ccccc2/C1=C/c1ccccc1N1CCOCC1,-7,105,103,68
N#CCCN(CC1COc2ccccc2O1)C(=O)c1ccccc1 (stereo unspecified),0,96,99,74
CN(C)c1cccc(C(=O)Nc2ccc3c(c2)nc(CCc2ccccc2)n3C)c1,-7,102,/,/
O=C(O)c1ccc(CSc2nnc(Cc3ccccc3)n2-c2ccccc2)cc1,-13,/,124,94
CC(C)c1ccc(NC(=O)c2cnc3sc(N4CCOCC4)nn3c2=O)cc1,/,107,91,98
CC(c1ccccc1)n1c(=S)[nH]c2ccccc21 (stereo unspecified),-35,108,68,25
